High-throughput results: PubChem BioAssay, several laboratories
T cruzi inh = T. cruzi replication inhibition; AID 1885; actives 1.4% (n = 300,000); T. cruzi beta-gal in NIH3T3, luminescence, 90 h; inhibition, % (concentration not given with the values);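 active = mean inhibition across valid replicates above about 55%, limit read from the data; inconclusive = mean below that limit but half or more replicates reach it; inactive = mean below it, under half of replicates reach it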;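 note: signal also drops with host cell toxicity which is not excluded here; 0% = plate median of DMSO wells and 100% = zero luminescence signal; higher percent means less beta-gal luminescence so fewer parasites; stock transfer was 50 nL into about 50 µL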
Vif A3G = inhibitors of Vif binding to APOBEC3G peptide, primary screen, biochemical, TR-FRET, GST-Vif 1-94, biotin-A3G peptide, dose response retest (AID 1117319). TR-FRET GST-Vif / biotin-A3G peptide binding; higher % means a stronger effect; test concentration not given here; strong numbers were not always called active. actives 0.57% (n = 260,000). one-dose inhibition, %; IC50 in µM for titrated hits;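 active = above the screen mean plus three standard deviations and confirmed in dose response; inconclusive = results disagree or hit not tested in dose response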;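 note: Vif residues 1-94 fused to GST binding biotinylated APOBEC3G peptide 110-148; 0% = full assay without inhibitor and 100% = GST in place of GST-Vif; retest series ran down from 100 µM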
Bfl-1 A1 inh = inhibitors of the anti-apoptotic protein A1, read as caspase activation; caspase activation, % (test concentration not listed); MEF A1-2A-BIM cells, Caspase-Glo 3/7 luminescence, 3 h; percent of clofoctol response, vehicle zero; actives 0.066% (n = 330,000); AID 2462;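 active = over half of replicate activation scores above 10%, or exactly half above 10 with the replicate mean above 10; inconclusive = replicate mean below 10 yet half the replicates above 10; inactive = over half of replicates below 10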;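 note: wells of about 30 µL received 50 nL stock; many hits fall short of the cut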
Beta apoptosis = blocks beta cell apoptosis; INS-1E cytokine-induced death, ATP luminescence, 48 h; percent of positive-control rescue, neutral wells zero; protection from apoptosis, % (no concentration beside the values); actives 0.8% (n = 300,000);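 active = all replicates at 75% or more, or half of them and the mean; inconclusive = half reach 75% but not the mean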;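 note: 0% = cytokine-treated negative control wells and 100% = positive control rescue; higher means more ATP so stronger rescue from cytokine killing; wells of about 40 µL received 100 nL stock; the first replicate is given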
LANA-H2A inh = blocks KSHV LANA binding to histone H2A/H2B | Q9QR71 | cell-free LANA-H2A/H2B peptide, fluorescence polarization | inhibition, % (test concentration not listed) | actives 0.6% (n = 320,000) | AID 2629; in the data active = inhibition mostly above about 10%, no sharp cut-off; inactive = mostly below about 6.7%;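 note: stock transfer was 7.5 nL into about 10 µL; 0% = median of vehicle wells and 100% = median of positive control wells; one replicate is shown; the record names a cut of 25% in any replicate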
Target sequence (Q9QR71 whole entry, looked up): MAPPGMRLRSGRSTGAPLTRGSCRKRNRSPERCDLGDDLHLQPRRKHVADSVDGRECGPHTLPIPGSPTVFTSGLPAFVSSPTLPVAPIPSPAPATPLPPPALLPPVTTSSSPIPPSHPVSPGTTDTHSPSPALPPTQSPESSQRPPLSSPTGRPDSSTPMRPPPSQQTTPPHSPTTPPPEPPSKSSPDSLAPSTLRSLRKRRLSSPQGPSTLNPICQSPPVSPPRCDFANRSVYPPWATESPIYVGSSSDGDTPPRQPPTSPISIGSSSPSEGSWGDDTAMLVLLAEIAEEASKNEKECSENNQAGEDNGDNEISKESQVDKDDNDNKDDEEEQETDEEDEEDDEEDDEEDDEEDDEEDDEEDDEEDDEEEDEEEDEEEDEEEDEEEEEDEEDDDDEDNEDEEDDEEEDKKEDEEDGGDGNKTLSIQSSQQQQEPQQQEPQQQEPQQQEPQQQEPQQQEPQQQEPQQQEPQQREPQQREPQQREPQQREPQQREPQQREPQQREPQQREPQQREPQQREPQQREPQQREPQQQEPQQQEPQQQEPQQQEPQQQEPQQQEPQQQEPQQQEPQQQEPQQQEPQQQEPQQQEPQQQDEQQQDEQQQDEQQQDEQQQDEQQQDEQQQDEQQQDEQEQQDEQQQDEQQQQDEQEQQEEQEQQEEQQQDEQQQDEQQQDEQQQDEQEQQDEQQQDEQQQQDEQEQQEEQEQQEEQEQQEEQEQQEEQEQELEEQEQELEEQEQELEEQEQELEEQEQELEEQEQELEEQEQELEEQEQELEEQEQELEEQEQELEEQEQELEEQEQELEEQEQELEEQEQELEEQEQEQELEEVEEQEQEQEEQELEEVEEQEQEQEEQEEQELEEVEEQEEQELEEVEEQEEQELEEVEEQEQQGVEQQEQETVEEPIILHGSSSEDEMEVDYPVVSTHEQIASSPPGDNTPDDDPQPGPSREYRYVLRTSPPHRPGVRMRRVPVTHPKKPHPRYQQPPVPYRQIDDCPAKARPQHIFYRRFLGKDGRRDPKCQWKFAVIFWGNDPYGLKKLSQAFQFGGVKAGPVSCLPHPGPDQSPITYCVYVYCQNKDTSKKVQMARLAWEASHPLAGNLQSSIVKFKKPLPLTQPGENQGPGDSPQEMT
AF4-AF9 inh = inhibitors of human MLL-AF4/AF9 interaction. P42568. AlphaScreen, biotin-AF4 peptide binding to FLAG-AF9. inhibition, % at 10 µM. actives 0.47% (n = 350,000). AID 651704;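 active = every replicate reaching a set inhibition limit, whatever the replicate mean, cut at about 25% in these data; inconclusive = mean inhibition reaches that limit but some replicates miss it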;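 note: 0% = plate neutral control median and 100% = total signal loss; the record names both 10 and 1 µM as test concentration; the first replicate is given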
RanGTP-Imp inh = disruptors of Ran-importin-beta complex formation – biochemical, FRET, CFP-Ran, YFP-importin-beta, homogeneous, primary screen; cell-free CFP-Ran/YFP-importin-beta FRET ratio; actives 1.1% (n = 300,000); inhibition, % (test concentration not listed);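 active = most replicates above 15%; inconclusive = exactly half above 15%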;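 note: 0% = DMSO wells and 100% = Ran loaded with GDP instead of GTP; wells of about 40 µL received 100 nL stock; the first replicate is given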
Calb FLC = affects C. albicans growth with fluconazole. C. albicans CaCi-2 (fluconazole-resistant clinical isolate) + fluconazole, Alamar Blue growth, 48 h. growth inhibition, % (test concentration not listed). actives 0.57% (n = 300,000);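 active = most replicates above 75%; inconclusive = exactly half above 75%; inactive = most below 75%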;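 note: all wells also contain fluconazole at 8 µg/ml as a sub-toxic cotreatment; 0% = median of DMSO wells and 100% = median of geldanamycin control wells; wells of about 8 µL received 7.5 nL stock; the first replicate is given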
Starred values were filed as active, the others as inactive; u = inconclusive; x = not tested or not shown; & = joins results of further samples.

SMILES	T cruzi inh	Vif A3G	Bfl-1 A1 inh	Beta apoptosis	LANA-H2A inh	AF4-AF9 inh	RanGTP-Imp inh	Calb FLC
Cc1ccc(CSC2=Nc3ccccc3C3=NC(CCC(=O)NCc4ccco4)C(=O)N23)cc1 (stereo not drawn)	3	u	-0.2	-4	3.1	x	1.4	2
COc1ccc(-c2nc(SCC(=O)NCc3ccco3)c(-c3ccccc3)[nH]2)cc1OC	4	-2%	-0.4	3	10	x	-2.6	-2
CN(C)S(=O)(=O)c1ccc(C(=O)NC2CCCc3ccccc32)cc1 (stereo not drawn)	-3	7%	-0.5	-4	5.7	-0.3	1.5	-6
COc1ccccc1-n1cnnc1SCc1csc(-c2ccccc2)n1	x	-3%	-0.1	-5	-1.2	x	x	x
CCCCCCC(=O)N(O)C1CC(=O)N(Cc2ccccc2)C1=O (stereo not drawn)	x	-1%&13%	0.5	-27	3.6	-2.6	x	x
Cc1cc(C)c2nc(-c3ccccn3)cc(C(=O)NCCc3ccc(S(N)(=O)=O)cc3)c2c1	-33	11%	-0.4	10	1.8	0.3	0.5	31
CCC(CC)NC(=O)COC(=O)c1ccc2c(c1)C(=O)N(Cc1ccco1)C2=O	-15	x	0.0	-4	9.5	3.2	1.9	10
CCc1nc(SCC(=O)NCCc2ccc(OC)c(OC)c2)c2c(=O)n(C)c(=O)n(C)c2n1	7	7%	0.8	1	-1.8	u	7.4	5
CC(C)(C)[C@H]1C=C(C(=O)N2CCN(Cc3ccc4c(c3)OCO4)CC2)O[C@@H](OCCCCO)C1	-2	18%	0.1	-3	6.1	2.0&-5.6	5.5	-3
COCCCNC(=O)COc1ccc(S(=O)(=O)NCc2ccccc2)cc1Cl	0	-1%	0.3	3	1.7	x	2.0	-14
C[C@H](/C=C/[C@@]1(O)[C@H](C)C[C@H](O)CC1(C)C)O[C@@H]1O[C@H](CO)[C@@H](O)[C@H](O)[C@H]1O	-10	x	0.0	-1	-1.5	-12	0.6	2
O=C(O)C1C2C=CC(C2)C1C(=O)N1CCN(C/C=C/c2ccccc2)CC1 (stereo not drawn)	0	0%	0.5	-10	-2.2	x	1.9	-5
OCCNc1nc2nonc2nc1NCCO	-11	u	0.2	-4	-4.5	-2.0	-2.4	-3
O=C(NNC(=O)c1ccc2nc[nH]c2c1)c1ccccc1	x	12%	1.1	-3	0.9	-2.1	x	x
Cc1ccc(C)c(-c2nnc(NC(=O)CCS(=O)(=O)c3ccc(F)cc3)o2)c1	0	-7%	-0.5	-8	-6.0	-0.7	4.2	23
O=c1c2cc(-c3ccccc3)sc2nc2n1N=C(c1ccccc1)CS2	17	x	-5.1	8	-3.5	-0.6	-1.8	3
CCN(CC(=O)Nc1ccc(NC(C)=O)cc1)CC(=O)Nc1ccccc1C(=O)c1ccccc1	17	11%	0.3	-4	10*	-0.6	2.1	17
O=S(=O)(c1cccc2nonc12)N1CCCCCC1	8	24%	-0.5	0	1.6	1.9	0.5	0
Cn1nc(C(=O)NCC(c2cccs2)N2CCOCC2)c2ccccc2c1=O (stereo not drawn)	x	-6%	-0.2	2	1.5	-1.7	x	x
COC1CCN(C(=O)c2cc(COc3ccc(-n4cncn4)cc3)on2)CC1	-8	x	0.3	-5	-4.0	-1.0	-2.6	-2
O=C(Nc1ccccc1)/C(=C\c1ccc(F)cc1)NC(=O)c1ccco1	11	x	1.0	-4	-0.8	1.2	2.1	-5
COc1ccc(NC(=S)NCCCN2CCOCC2)cc1	4	3%	-1.5	-8	-0.2	-0.2	1.6	6
O=C(CCc1nnc2ccc(NCc3ccccc3)nn12)NC1CCCC1	10	x	0.6	x	-1.5	1.5	7.0	-4
COc1ccc(OC)c(NC(=O)C2=C(C)NC(=O)NC2c2cccs2)c1 (stereo not drawn)	x	-6%	-0.2	-9	-2.3	2.4	x	-10
CCOC(=O)CSc1nc(N)nc(C)c1Br	3	6%	-0.3	1	-11	x	0.9	-10

Next section:
SMILES	T cruzi inh	Vif A3G	Bfl-1 A1 inh	Beta apoptosis	LANA-H2A inh	AF4-AF9 inh	RanGTP-Imp inh	Calb FLC
COc1cc(C2Nc3ccccc3C(=O)N2c2ccccc2)ccc1O (stereo not drawn)	-18	39µM*	-3.6	-5	-6.6	-0.1	1.1	9
CC1=C(C(=O)OCc2ccc([N+](=O)[O-])cc2)N2C(=O)C(NC(=O)Cc3ccccc3)C2SC1 (stereo not drawn)	4	x	0.0	-2	-2.9	-1.9	6.5	11
Cn1cnnc1SC1CCCCC1NS(=O)(=O)c1ccc(Cl)cc1 (stereo not drawn)	13	1%	-0.8	-8	9.4	6.2	-2.2	u
COc1ccc2c(c1)[nH]c1c(N3CCN(Cc4ccc5c(c4)OCO5)CC3)ncnc12	34	-1%&-2%	-1.1	105*	0.6	x	5.7	-19
O=C(C[n+]1cccc(NC(=O)c2ccccc2)c1)c1cccc([N+](=O)[O-])c1	-20	4%	0.7	6	-1.1	6.1	u	-20
CCOc1cccc(CN2CCCC(C(=O)c3cc(Cl)ccc3OC)C2)c1O (stereo not drawn)	14	x	0.6	5	-0.1	8.2	3.6	6
Cc1cc(C(F)(F)F)nn1CCCNC(=O)c1cnccn1	-9	24%	-0.3	-1	4.8	x	2.6	-3
CCOC(=O)Cc1c(C)nc(-c2ccccc2)[nH]c1=O	-1	u	-0.4	-5	-1.6	x	0.2	-1
C#Cc1ccc([C@@H]2C=C(C(=O)O)O[C@H](OCc3ccc(CO)cc3)C2)cc1	-6	16%	-0.4	-6	5.2	-1.9	2.9	5
CCOc1ccc(C(C)=O)cc1COC(=O)CCc1cc(OC)c(OC)c(OC)c1	12	x	0.7	-7	1.8	-7.8	0.1	-1
CCCCc1c(C(=O)O)cc(OC)cc1C(=O)O	-10	-3%	0.3	-5	0.4	x	-2.0	1
COc1ccnc2c1c(=O)n(Cc1ccccc1Cl)c(=O)n2C	-7	x	-0.1	1	0.1	-3.8	5.0	6
CC(=O)Nc1ccc(OCC(=O)c2ccc(C)cc2C)cc1	-4	4%	-0.2	4	1.2	x	3.1	1
Cc1ccc(S(=O)(=O)N(Cc2ccc([N+](=O)[O-])cc2)C(=O)N2CCN(C)CC2)cc1	-6	5%	x	x	x	-1.0	-0.9	-4
O=C(CN1C(=O)NC2(CCCCC2)C1=O)NCCC1=CCCCC1	-2	78%	0.1	-3	-5.1	-58	-5.0	-3
CC(C)c1ccc(NC(=O)CCN2C(=O)c3ccc([N+](=O)[O-])cc3C2=O)cc1	2	3%	1.5	-1	2.1	x	1.9	u
O=C(O)CSc1ccc(NC(=O)Nc2ccccc2F)cc1	-11	5%	-7.2	6	1.3	-2.5	1.4	x
COCc1nnc(NC(=O)C2CC(=O)N(C3CCCC3)C2)s1 (stereo not drawn)	7	6%	0.9	-7	-1.9	-0.9	-4.0	-16
Cc1nc2ccccc2c(=O)n1NS(C)(=O)=O	-1	2%	0.7	-3	3.2	x	3.5	5
COc1ccc(-c2nn(Cc3ccccc3)cc2C(=O)N2CCN(c3ccccn3)CC2)cc1OC	x	-12%	0.1	-8	1.5	5.1	x	x
CCOC(=O)/C(C#N)=C1/SC(C)C(=O)N1c1ccc(Br)cc1 (stereo not drawn)	-20	27%	-0.3	-2	-0.4	x	-1.9	-1
O=C(COc1ccc(Cl)cc1)Nc1ncccn1	-17	-3%	-0.9	-2	-0.1	x	3.3	-7
CCCOc1ccc(NC(=O)CCC(=O)NC(C)c2ccccc2)cc1 (stereo not drawn)	0	x	-0.6	2	0.5	-1.2	6.3	14
CC(=O)C1=C(O)CC(C)(C)CC1=NCCc1nc2ccccc2[nH]1	1	x	-0.5	-6	0.5	2.9	6.0	5
c1nc(COc2nsnc2N2CCOCC2)cs1	0	-3%	-1.5	-3	-2.3	x	-2.9	1

(next part)
SMILES	T cruzi inh	Vif A3G	Bfl-1 A1 inh	Beta apoptosis	LANA-H2A inh	AF4-AF9 inh	RanGTP-Imp inh	Calb FLC
C/C(=N\NC(=O)c1ccccn1)C12CC3CC(CC(C3)C1)C2	0	15%	0.2	-10	0.9	x	3.5	u
O=C(Nc1cccc2cccnc12)c1cccc(N2C(=O)CCC2=O)c1	-9	14%	0.4	0	3.8	x	-2.7	-21
CN1CCc2nc(SCc3ccc(Cl)cc3)c(C#N)c(-c3cccs3)c2C1	58*	x	-0.1	-11	-0.1	14	-3.8	2
Cc1ccc(OCCCC(=O)NC(C)c2ccccc2)c(C)c1 (stereo not drawn)	0	x	-2.1	-1	-9.2	-14	u	-10
CCc1nc2ccccc2c(C(=O)NCc2ccc(OC)cc2)c1C	-12	-2%	0.8	3	2.4	-2.7	-4.1	15
CC1CN(S(=O)(=O)c2ccc(C(=O)Nc3ccccc3F)cc2)CC(C)O1 (stereo not drawn)	x	x	0.0	-1	2.8	-0.9	x	x
CC1(c2nnc(-c3ccncc3)o2)CC(c2ccc(F)cc2)=NO1 (stereo not drawn)	-24	14%	-0.5	x	6.5	34*	4.6	-8
N#C/C(C(=O)N1CCOCC1)=c1/s/c(=C\c2ccccn2)c(=O)n1-c1ccccc1	0	4%	0.1	2	-1.3	0.4	-1.2	18
CC(C)(C)c1ccc(N2C(=O)CC(c3ccccc3)C2=O)cc1 (stereo not drawn)	-2	-8%	-1.3	-1	-0.7	-33	0.0	-1
O=C(CCc1nnc2ccc(NCc3ccco3)nn12)Nc1ccc(F)cc1F	1	x	-0.7	-1	-7.4	-2.6	1.7	16
O=C(NC1CC2CCCC(C1)N2Cc1cccs1)N1CCOCC1 (stereo not drawn)	-9	9%	0.6	-8	-1.9	x	6.1	0
CC(=O)c1cccc(NC(=O)c2ccc3c(c2)CCN3S(=O)(=O)c2ccccc2)c1	-5	x	0.9	8	3.8	-0.6	3.7	3
Cc1ccc(NNC(=O)Nc2ccc(Cl)cc2)nn1	-16	-6%	0.7	-7	0.5	-4.2	0.0	-11
CC(=O)c1cc2c(cc1NS(=O)(=O)c1ccc(C)cc1)OCO2	4	-3%	0.3	-12	-1.2	x	-1.0	-3
COc1ccc(/C=N\NC(=O)c2ccccc2OC)cc1COc1c(F)c(F)c(F)c(F)c1F	16	x	-0.3	0	-5.3	-8.7	5.4	5
CC(C)CN(C(=O)CN1CCN(c2ccccc2O)CC1)c1c(N)n(CC(C)C)c(=O)[nH]c1=O	-12	10%	0.3	-3	1.0	1.5	1.8	-11
O=C(CN1C2CCC1CC(NC(=O)Nc1ccccc1)C2)NCc1ccco1 (stereo not drawn)	24	5%	-1.2	0	1.1	x	-0.6	1
O=S(=O)(c1cc(F)cc(F)c1)N1CCN(c2ncccn2)CC1	-20	-4%	1.2	2	3.4	x	3.5	-16
CC(C)C[C@@H](CO)N1CCNCCC1=O	2	x	0.6	-4	-1.0	-3.8	-0.1	9
CCOC(=O)N/N=C\c1ccc(OC(=O)c2ccc3c(c2)OCO3)cc1	9	-4%	0.6	-3	-7.3	-2.5	0.9	10

Quoted at random: 2 records from the list, in no set order.
SMILES	T cruzi inh	Vif A3G	Bfl-1 A1 inh	Beta apoptosis	LANA-H2A inh	AF4-AF9 inh	RanGTP-Imp inh	Calb FLC
O=S(=O)(c1cc(F)cc(F)c1)N1CCN(c2ncccn2)CC1	-20	-4%	1.2	2	3.4	x	3.5	-16
CC(C)C[C@@H](CO)N1CCNCCC1=O	2	x	0.6	-4	-1.0	-3.8	-0.1	9
